NPR1 antag: blocks ANP-stimulated signaling of human Npr1 receptor; P16066; HEK293 hNpr1 GloSensor cGMP, ANP-stimulated luminescence; Potency, µM (highest dose often 46.3 µM), for inactives: at the highest dose activity change, negative = inhibition, actives largely listed as inhibitors; 76,000 compounds, 1.6% hits; AID 1347048; active = well fitted inhibition curve with a large enough effect; inconclusive = small, poorly fitted or top-dose-only effect; inactive = no such curve, though single readings can be large or run the other way;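 further: nearly all actives have a fitted effect of over 60% in size; nearly all hits also lower the signal before the agonist is added; a reference antagonist and vehicle were the controls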
Target sequence (P16066 whole entry, looked up): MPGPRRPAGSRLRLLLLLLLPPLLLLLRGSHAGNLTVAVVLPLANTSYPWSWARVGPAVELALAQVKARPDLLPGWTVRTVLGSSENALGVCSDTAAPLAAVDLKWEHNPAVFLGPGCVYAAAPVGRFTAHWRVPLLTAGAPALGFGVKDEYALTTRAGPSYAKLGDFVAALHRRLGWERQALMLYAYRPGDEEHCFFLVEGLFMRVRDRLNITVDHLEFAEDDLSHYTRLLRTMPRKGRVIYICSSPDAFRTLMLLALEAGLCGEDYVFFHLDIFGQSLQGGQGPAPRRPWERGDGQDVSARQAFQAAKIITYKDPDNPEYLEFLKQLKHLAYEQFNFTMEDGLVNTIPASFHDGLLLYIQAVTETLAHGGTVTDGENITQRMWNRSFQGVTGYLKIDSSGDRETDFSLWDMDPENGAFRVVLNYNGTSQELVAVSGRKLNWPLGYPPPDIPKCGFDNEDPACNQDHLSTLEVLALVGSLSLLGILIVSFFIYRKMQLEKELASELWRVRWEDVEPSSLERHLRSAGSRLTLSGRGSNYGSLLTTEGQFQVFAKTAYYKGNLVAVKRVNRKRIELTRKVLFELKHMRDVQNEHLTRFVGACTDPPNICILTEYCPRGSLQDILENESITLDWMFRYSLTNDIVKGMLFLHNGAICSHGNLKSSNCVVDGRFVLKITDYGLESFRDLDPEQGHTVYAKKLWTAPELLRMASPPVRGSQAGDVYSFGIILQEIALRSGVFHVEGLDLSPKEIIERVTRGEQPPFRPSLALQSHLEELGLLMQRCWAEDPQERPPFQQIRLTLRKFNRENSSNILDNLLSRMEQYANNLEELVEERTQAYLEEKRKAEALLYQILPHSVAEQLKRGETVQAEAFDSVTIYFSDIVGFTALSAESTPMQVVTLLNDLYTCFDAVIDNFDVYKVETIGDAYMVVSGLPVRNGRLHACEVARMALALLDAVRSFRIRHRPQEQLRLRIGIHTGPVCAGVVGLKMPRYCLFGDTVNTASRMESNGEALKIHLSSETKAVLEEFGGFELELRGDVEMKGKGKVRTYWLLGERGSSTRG
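HEK293 cells stably expressing human Npr1 and cGMP GloSensor pGS-40F, loaded 2 h with 2% GloSensor reagent, given compound 30 min at room temperature. Luminescence read before and 20 min after 0.1 nM hNppA.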
Numbers without * were called inactive; u = inconclusive; [ ] = remark or other dose. On the % scale 0 is the no-effect control and ±100 the full control effect; potency means the concentration at half of the fitted maximal effect.

structure | NPR1 antag
CCN1c2cc(C(=O)Nc3ccc(N(C)C)cc3)ccc2C(=O)N2CCCCCC21 (configuration not stated) | -8%
CC(=O)N1CCC(C(=O)N2CCCCCCN(C)C(=O)[C@@H]3CCC[C@@H]32)CC1 | 4%
COc1cc(=O)n2c(c1C(=O)Nc1ccccc1)CCCC2 | -10%
COc1ccc(NC(=O)c2c(C)oc3ccn(Cc4ccc(F)cc4)c(=O)c23)c(OC)c1 | 1%
COc1cccc(CN2Cc3cc(NC(=O)Cc4cccs4)ccc3OCC2=O)c1OC | -13%
CCC(=O)Nc1ccc(C2(C(=O)N3CCN(c4ccccc4F)CC3)CCC2)cc1 | -2%
Cn1nccc1C(=O)NC1CCCN(c2cc(-c3ccc(Cl)cc3)[nH]n2)C1 (configuration not stated) | -8%
CC(C)CNC(=O)N1CCC(N2CC3CC(C2)[C@H]2CCCC(=O)N2C3)CC1 (some centres not stated) | 0%
CN(C)C[C@@H]1CN(c2ccncn2)C[C@H]1NC(=O)c1nccc2ccccc12 | 11%
COc1ccccc1CNC(=O)C1CCN(C(=O)c2ncn3c2COC(c2ccc(C)cc2)C3)CC1 (configuration not stated) | -1%
CC(=O)N1CCC(C2CCN(Cc3cc(Cl)ccc3F)C2)CC1 (configuration not stated) | -8%
COc1ccc(-c2cc(N3CCN(C(=O)Cc4ccccc4)CC3)n[nH]2)cc1 | -15%
Cc1cc(C(F)(F)F)nc(CCNc2cc(C3CC(N)C3)nc(N)n2)n1 (configuration not stated) | -12%
CCN1CC(c2ccccc2)CC2(CCN(C(=O)c3cc[nH]c3C)CC2)C1 (configuration not stated) | -3%
CNC(=O)N1CCC(C2CCN(C3CCSCC3)C2)CC1 (configuration not stated) | 2%
COCc1ccc2c(c1)c(OC(C)(C)C(=O)NC(C)C)nn2Cc1cccnc1 | -2%[70.6 µM]
O=C(NC[C@H]1O[C@@H](CO)[C@@H](O)[C@H]1N1CCN(c2cccc(C(F)(F)F)c2)CC1)c1cccs1 | 0%
O=C(Nc1ccc(F)c(F)c1)c1ccc(Cn2ccn3nc4c(c3c2=O)CCCC4)cc1 | u
c1coc(CNC2(Cc3cc(CN4CCOCC4)on3)COC2)c1 | 6%[70.6 µM]
CCCCNC(=O)C1c2ccccc2C(=O)N(CCOC)C12CCCCC2 (configuration not stated) | -2%
Cn1cccc1CNC(=O)C1c2ccccc2C(=O)N(C2CCCCC2)C12CCCC2 (configuration not stated) | -20%
Cc1ccc(CNC(=O)N2CCCC(c3nn[nH]n3)C2)cc1 (configuration not stated) | 2%
CCCCc1nn(CC(=O)NCc2noc(C3CCCO3)n2)c(=O)n1CC (configuration not stated) | -2%
CN1CC(=O)N(c2ccccc2F)Cc2c(NCCc3ccc(F)cc3)ncnc21 | 5%
CC(Oc1cccc(Cl)c1)C(=O)N1CCN(c2cc(-c3cccs3)[nH]n2)CC1 (configuration not stated) | u
COc1ccccc1N1CCN(C2CCCN(Cc3nc(C(N)=O)no3)C2)CC1 (configuration not stated) | 5%
Cc1nc(-c2cn(C3CCCN(C(=O)c4cccc(OC(F)(F)F)c4)C3)nn2)no1 (configuration not stated) | -5%
COc1cccc(NC(=O)[C@@H]2C[C@@H](c3ccc(F)cc3)N(CCOc3ccccc3)C2)c1 | u
CC(C)C(=O)Nc1ccc(C2(C(=O)N3CCCC3)CCCCC2)cc1 | -1%
O=C(c1ccc(F)c(F)c1)N1CC(c2nnc(-c3ccncc3)o2)C2(CCOCC2)C1 (configuration not stated) | 1%
COc1ccc(C(=O)Nc2ccc(-c3noc([C@@H]4CCCN4Cc4ccc(F)cc4)n3)cn2)cc1 | 11µM*
CS(=O)(=O)N1CCCC(c2nc(CCOc3ccc(F)cc3)no2)C1 (configuration not stated) | -10%
COc1cccc(CNC(=O)[C@@H]2C[C@@H](O)CN2C2CCN(C(=O)c3cccnc3)CC2)c1 | -14%
COc1ccccc1CCN1CCC(CN(C)C(=O)CCc2ccccc2Cl)CC1 | -19%
COCCN1C(=O)c2ccccc2C(C(=O)NCC(C)C)C12CCCC2 (configuration not stated) | 2%
CCOc1ccccc1C(=O)NCc1nnc2c(-c3nc(C(C)C)no3)cccn12 | 3%
Fc1ccc(-c2cnc([C@@H]3COCCN3Cc3c[nH]c4ccccc34)[nH]2)c(F)c1 | 25µM*
O=C1Cc2c(-c3ccccc3Oc3ccccc3)n[nH]c2CN1Cc1ccccc1 | -22%[70.6 µM]
COC[C@@H]1[C@H](C(=O)O)CCC(=O)N1C | 0%
O=C(c1cc[nH]c(=O)c1)N1CCCn2ccnc2C1c1ccccc1 (configuration not stated) | 0%
CCCCN1C(=O)c2ccccc2C(C(=O)Nc2cccc(NC(C)=O)c2)C12CCCC2 (configuration not stated) | 0%
CCOC(=O)c1ccc(NC(=O)N2Cc3[nH]cnc3C[C@H]2c2nc(-c3ccc(Cl)cc3)no2)cc1 | -19%
COc1ccc(C(=O)N2CCN3C(=O)N(Cc4ccc(C)cc4)C[C@H]3C2)cc1 | 4%[70.6 µM]
CCCOCCCNC(=O)c1c(C)noc1-c1ccc(OC(F)(F)F)cc1 | -4%
N#Cc1ccc(-c2nc(C(=O)NCC3CCCCC3)no2)cc1 | -13%
CC[C@H]1CN(C(=O)c2ccnc(Cl)c2)CC[C@H]1CC(=O)NCc1ccccc1 | -1%[70.6 µM]
Cc1cc(C(=O)N2CCCC(n3c(C)cnc3C3CC3)C2)n(C)n1 (configuration not stated) | 2%
C#CCNC(=O)[C@@H]1CCCN1[C@@H](C(=O)NC)c1ccccc1OC | 1%[70.6 µM]
Cn1cccc1C(=O)NCc1nnc2ccc(-c3ccccc3)nn12 | -2%
O=C1c2c(nc(COc3ccc4c(c3)OCO4)n2Cc2ccccc2)NCCN1Cc1ccccc1F | u

Brought forward from above: two compounds, then new ones.
structure | NPR1 antag
Cn1cccc1C(=O)NCc1nnc2ccc(-c3ccccc3)nn12 | -2%
O=C1c2c(nc(COc3ccc4c(c3)OCO4)n2Cc2ccccc2)NCCN1Cc1ccccc1F | u
CN(C)c1cccc(-c2nc(-c3nnn4c3COC(c3ccccc3Cl)C4)no2)c1 (configuration not stated) | -4%
COCc1nnc2n1CCC(NC(=O)COc1ccc(F)cc1)CC2 (configuration not stated) | 3%
CCOc1ccc(CN2CCCC(COc3ccccc3C(=O)N3CCCC3)C2)cc1 (configuration not stated) | 2%
Cc1ncc(C(C)C)c(-c2ccccc2CN(C)C)n1 | 1%
CC1CCN(CCCNC(=O)C2CCCN(S(=O)(=O)c3cn(C)cn3)CCC(=O)NCC2)CC1 (configuration not stated) | 4%
COc1ccc(-c2ccnc(N[C@H]3CO[C@H]4[C@@H]3OC[C@H]4OC(=O)Nc3ccc(C(C)=O)cc3)n2)cc1 | 10µM*
CC1=NOC2(CCN(Cc3cccn3C)CC2)C1 | 22%[70.6 µM]
O=C(NC1CCCN(c2cc(-c3ccccc3)[nH]n2)C1)c1ccc2[nH]ccc2c1 (configuration not stated) | -20%
C=CCOc1cccc(-c2nnc(CCC(=O)NC(C)CC)c(=O)[nH]2)c1 (configuration not stated) | -9%
O=C(NC1CCN(c2cc(-c3ccc(Cl)cc3)[nH]n2)C1)c1ccccc1 (configuration not stated) | -8%
COc1ccc(Cl)cc1C(=O)N1CCCN(c2cc(-c3ccc(F)cc3)[nH]n2)CC1 | -29%
CC(C)NC(=O)c1ccccc1OCC1CCCN(Cc2cncs2)C1 (configuration not stated) | 1%
Cc1ncc2c(c1CNC(=O)c1ccc3c(c1)OCO3)CCN(C(=O)c1ccc3ccccc3c1)C2 | 3%
O=C(NCC1(O)CCCNCC1)c1cccc(-c2ccc(F)cc2)c1 (configuration not stated) | -6%
CCn1cnnc1CC1CCN(C(=O)c2ccc(OC)cc2OC)C1 (configuration not stated) | 4%
Cc1ccsc1C(=O)N1CCC(n2cc(-c3nc(-c4ccccc4)no3)nn2)C1 (configuration not stated) | u
O=C(c1ccccc1F)N1CCCC2(C1)C(=NC1CCCCC1)NC(=O)N2c1cccnc1 (configuration not stated) | 0%
c1ccc(-c2nnc3n2CCN(Cc2cccnc2)C3)cc1 | -9%[70.6 µM]
CS(=O)(=O)N1CCC(N2C(=O)C3(CCCCC3)C2c2ccccc2)CC1 (configuration not stated) | 6%
Cc1ccc(-c2ccc3nnc(CNC(=O)c4c(F)cccc4F)n3n2)cc1 | -1%
CCn1ncc(N2CCCC(CC(=O)NCc3cccc(F)c3)C2)cc1=O (configuration not stated) | -3%
COCCN1CC(Cc2ncccc2C(=O)N2CCCCC2)CC1=O (configuration not stated) | 8%
O=C(N[C@H]1CO[C@H]2[C@@H]1OC[C@@H]2Nc1nccc(-c2ccc(-c3ccccc3)cc2)n1)C1CCCCC1 | u
COc1ccc(OCC(O)CN(C)C)c(CN2CCC(c3ccncn3)CC2)c1 (configuration not stated) | 4%
COc1ccccc1OCCNC(=O)CCC1CCN(C(=O)c2ccccc2)CC1 | -11%
COc1cccc(C(=O)N2CCC(c3nn(Cc4ccccc4)c(=O)[nH]3)CC2)c1 | 23%
Cc1ccsc1[C@@H]1CCN(Cc2ccc(-c3ccn[nH]3)o2)C[C@H]1O | 6%
COCCN(C)C[C@@H]1CN(C(=O)c2cnn(-c3ccccc3)c2)C[C@@H]1CO | 1%
COc1ccc(C2Cn3nnc(-c4nc(-c5cccnc5)no4)c3CO2)cc1 (configuration not stated) | -1%
OCC1CN(c2ncccn2)CC12CCN(Cc1cc(F)ccc1F)CC2 (configuration not stated) | -2%
N#Cc1ccc(CN2CCC3(CC2)CC(c2cccc(C(F)(F)F)c2)=NO3)cc1 | 8.9µM*
Cn1ncc(N2CCC(NC(=O)c3ccccc3)CC2)cc1=O | -3%
COc1cccc(NC(=O)CC2CCCN(c3cnn(C)c(=O)c3)C2)c1 (configuration not stated) | -3%
COCCNC(=O)C1(C)CN(C)Cc2ccc(Nc3ccccc3)nc21 (configuration not stated) | 0%[70.6 µM]
CCCCOC(=O)N1CCCn2nc(C(=O)N3CCOCC3)cc2C1 | -1%
O=C(Nc1ccc2c(N3CCOCC3)ncnc2c1)c1ccc(Br)o1 | 3%
C[C@@H](NC(=O)C1=C[C@@H](NC(=O)CS(=O)(=O)c2ccccc2)[C@@H](O)[C@H](O)C1)C(N)=O | 2%[70.6 µM]
O=C(c1ccsc1)N1CCCC(Cc2nncn2CC2CC2)C1 (configuration not stated) | -1%
COc1ccc(-c2noc(CCCC(=O)N3CCCC3c3nc(C4CCOCC4)no3)n2)cc1OC (configuration not stated) | 0%
CN(CCn1ccnc1)c1ccc(-c2nc(-c3cccc(Cl)c3)no2)cn1 | u

Of the compounds above, twelve have sulfur:
structure | NPR1 antag
COc1cccc(CN2Cc3cc(NC(=O)Cc4cccs4)ccc3OCC2=O)c1OC | -13%
CNC(=O)N1CCC(C2CCN(C3CCSCC3)C2)CC1 (configuration not stated) | 2%
O=C(NC[C@H]1O[C@@H](CO)[C@@H](O)[C@H]1N1CCN(c2cccc(C(F)(F)F)c2)CC1)c1cccs1 | 0%
CC(Oc1cccc(Cl)c1)C(=O)N1CCN(c2cc(-c3cccs3)[nH]n2)CC1 (configuration not stated) | u
CS(=O)(=O)N1CCCC(c2nc(CCOc3ccc(F)cc3)no2)C1 (configuration not stated) | -10%
CC1CCN(CCCNC(=O)C2CCCN(S(=O)(=O)c3cn(C)cn3)CCC(=O)NCC2)CC1 (configuration not stated) | 4%
CC(C)NC(=O)c1ccccc1OCC1CCCN(Cc2cncs2)C1 (configuration not stated) | 1%
Cc1ccsc1C(=O)N1CCC(n2cc(-c3nc(-c4ccccc4)no3)nn2)C1 (configuration not stated) | u
CS(=O)(=O)N1CCC(N2C(=O)C3(CCCCC3)C2c2ccccc2)CC1 (configuration not stated) | 6%
Cc1ccsc1[C@@H]1CCN(Cc2ccc(-c3ccn[nH]3)o2)C[C@H]1O | 6%
C[C@@H](NC(=O)C1=C[C@@H](NC(=O)CS(=O)(=O)c2ccccc2)[C@@H](O)[C@H](O)C1)C(N)=O | 2%[70.6 µM]
O=C(c1ccsc1)N1CCCC(Cc2nncn2CC2CC2)C1 (configuration not stated) | -1%

Continuation:
structure | NPR1 antag
COCc1nc(C2CCCN(C(=O)c3nccn3C)C2)no1 (configuration not stated) | 0%
NC(=O)CNC(=O)C1=C[C@@H](NC(=O)c2cccc(F)c2)[C@@H](O)[C@H](O)C1 | -3%[70.6 µM]
Cc1cc(CN2CCCC(CCNC(=O)C3(N)CC3)C2)oc1C (configuration not stated) | -4%
CC1(C)NC(=O)N(CC(=O)NC2CC(c3cc(=O)[nH]c(N)n3)C2)C1=O (configuration not stated) | -3%
COc1ccc2cc(C(=O)N3CCC4(CC3)CC(C(=O)N3CCOCC3)N(C)C4)[nH]c2c1 (configuration not stated) | -3%
COc1ccc2ccc(OCc3nc(C(=O)N4CCCC(C)(CO)C4)co3)cc2c1 (configuration not stated) | 11µM*
COCCN1C(=O)c2ccccc2C(C(=O)NC2CCCCC2)C12CCCC2 (configuration not stated) | 0%
COc1ccc(NC(=O)c2c(-c3cnn(C)c3NCc3ccccc3)noc2C)cc1 | -6%[70.6 µM]
CSc1ccccc1-c1ccc(N2CCN(C)CC2)nn1 | -4%
CCc1nc(CN2CCOC(c3ccc4cc(OC)ccc4c3)C2)no1 (configuration not stated) | 2%
COc1ccc(-c2nc(C)nc3c2CCN([S+](=O)([O-])c2cccs2)CC3)cc1 | 17%

Screens deposited in PubChem by National Center for Advancing Translational Sciences (NCATS).

A portion of the library; count on the stated rates, not on these rows.
